ALR inh: human ALR oxidase inhibition via reduced H2O2; purified ALR, DTT oxidation, H2O2 HRP-luminol luminescence; hit rate 3.8% among 290,000; inhibition, % (no concentration beside the values);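 active = mean and each replicate at 75% or more; inconclusive = only one of the two met; inactive = neither met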;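 also: stock transfer was 7.5 nL into about 7.5 µL; 0% = neutral wells and 100% = wells with inactivated enzyme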
Target sequence (P55789 whole entry, looked up): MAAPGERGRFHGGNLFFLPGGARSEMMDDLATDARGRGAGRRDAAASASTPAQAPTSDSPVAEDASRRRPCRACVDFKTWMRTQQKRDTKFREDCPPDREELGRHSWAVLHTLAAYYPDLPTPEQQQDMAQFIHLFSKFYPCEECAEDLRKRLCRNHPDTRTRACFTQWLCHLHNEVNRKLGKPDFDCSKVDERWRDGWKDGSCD
Ecoli rRNA inh: inhibitors of bacterial rRNA selective over humanized ribosomes; AID 720706; hit rate 1.6% among 350,000; GFP signal change (wild-type ribosome), % (concentration not given with the values); E. coli WT GFP vs humanized-ribosome RFP mutants, fluorescence, 24 h; hits give low values; DMSO median 0, no signal -100;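 active = significant combined selectivity score with lowered wild-type GFP, culture density cut under 30%, mutant RFP and density less affected; inactive = any of these conditions unmet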; also: one replicate is shown; some compounds called inactive have numbers as strong as hits
HNF4A DNA FP: change in binding of human HNF4 alpha to DNA; P41235; HNF4a-FITC DNA binding, fluorescence polarization, 1 h; activity change, % at 10 µM; hit rate 0.3% among 360,000; in the data active = activity change above about 30%, passing the limit was not always enough;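 also: controls were the assay level and a saturating level of protein; the project sought stronger binding though the title names inhibitors; some compounds called inactive have numbers as strong as hits; positive values seem to mean higher polarization but the record does not say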
Target sequence (P41235 whole entry, looked up): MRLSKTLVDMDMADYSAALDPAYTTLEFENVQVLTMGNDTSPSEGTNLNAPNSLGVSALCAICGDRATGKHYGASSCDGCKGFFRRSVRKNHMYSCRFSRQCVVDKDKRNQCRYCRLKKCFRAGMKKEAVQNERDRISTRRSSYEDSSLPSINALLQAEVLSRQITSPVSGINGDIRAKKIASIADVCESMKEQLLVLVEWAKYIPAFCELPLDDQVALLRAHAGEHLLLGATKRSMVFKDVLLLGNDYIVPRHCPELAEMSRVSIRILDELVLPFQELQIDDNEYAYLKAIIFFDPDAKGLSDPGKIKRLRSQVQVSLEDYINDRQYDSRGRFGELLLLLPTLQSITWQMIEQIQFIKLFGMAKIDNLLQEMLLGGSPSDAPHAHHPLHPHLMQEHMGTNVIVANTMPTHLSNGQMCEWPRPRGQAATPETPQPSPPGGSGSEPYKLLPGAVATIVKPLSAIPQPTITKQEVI
E coli growth: blocks Escherichia coli growth. hit rate 0.21% among 330,000. OD600 absorbance (concentration not given with the values). OD600, 23 h; hits give low values;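 active = OD600 absorbance below the run mean of sample wells minus 3.6 SD, in any replicate, cut at about 0.56 in these data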;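 also: stock transfer was 300 nL into about 60 µL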
Vif TR-FRET: inhibitors of Vif binding to APOBEC3G peptide, primary screen, biochemical, TR-FRET, GST-Vif 1-94, biotin-A3G peptide, dose response retest (AID 1117319) | hit rate 0.57% among 260,000 | TR-FRET GST-Vif / biotin-A3G peptide binding; higher % means a stronger effect; test concentration not given here; strong numbers were not always called active | one-dose inhibition, %; IC50 in µM for titrated hits;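 active = above the screen mean plus three standard deviations and confirmed in dose response; inconclusive = results disagree or hit not tested in dose response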;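 also: Vif residues 1-94 fused to GST binding biotinylated APOBEC3G peptide 110-148; 0% = full assay without inhibitor and 100% = GST in place of GST-Vif; retest series ran down from 100 µM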
AF4-AF9 inh: blocks AF4 peptide binding to human AF9. P42568. AlphaScreen, biotin-AF4 peptide binding to FLAG-AF9. inhibition, % at 10 µM. hit rate 0.47% among 350,000. AID 651704;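 active = every replicate reaching a set inhibition limit, whatever the replicate mean, cut at about 25% in these data; inconclusive = mean inhibition reaches that limit but some replicates miss it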;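 also: 0% = plate neutral control median and 100% = total signal loss; the record names both 10 and 1 µM as test concentration; the first replicate is given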
FGF22 binding: shifts melting point of recombinant human FGF22; Q9HCT0; recombinant FGF22 thermal shift, SYPRO orange fluorescence; percent of sucrose octasulfate shift, DMSO zero; calls only at 9.99 µM; hit rate 1.5% among 340,000; AID 651658;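 active = melting point raised past a set limit in the mean and every replicate; inconclusive = no clear call; three in four hits are not shown here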
Target sequence (Q9HCT0 whole entry, looked up): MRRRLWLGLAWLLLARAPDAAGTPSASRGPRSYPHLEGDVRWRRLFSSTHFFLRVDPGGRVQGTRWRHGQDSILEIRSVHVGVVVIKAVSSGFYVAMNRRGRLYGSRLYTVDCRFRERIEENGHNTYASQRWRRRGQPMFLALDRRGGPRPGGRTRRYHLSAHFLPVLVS
Ecoli rRNA inh OD600: recorded beside Ecoli rRNA inh, whose call it bears; OD600 change, %; measured here: OD600 growth;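 optical density of the mix in the first replicate; 0 = DMSO median and -100 = no signal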
Ecoli rRNA inh RFP: second read-out of Ecoli rRNA inh, no call of its own (marks repeat the call); RFP signal change, %; measured here: RFP humanized mutant strains;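 first replicate; 0 = DMSO median and -100 = no signal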
Starred values were filed as active, the others as inactive; i = inactive; ? = inconclusive; nt = not tested or not shown. A portion of the library; the hit share may differ from the screen's.

Second line of a record: Ecoli rRNA inh RFP, Ecoli rRNA inh OD600, FGF22 binding, Ecoli rRNA inh, HNF4A DNA FP, E coli growth, Vif TR-FRET, AF4-AF9 inh, ALR inh
- COc1ccc(CCN2C(=O)c3cccc4c(C(=O)N5CCCCC5)ccc(c34)C2=O)cc1OC
 : -7.4, 2, i, 3, -0.2, 0.76, nt, 2.3, -124
- CC12CCC(=O)N1C(C(=O)NCCN1C(=O)S/C(=C\c3ccccc3F)C1=O)CS2 (centres undefined)
 : 1.7, -6, i, -3, -2.0, 0.7, 0%, 0.4, -5
- CSc1ccc(CN2CCC(C)(Oc3ccccc3F)C2)cc1 (centres undefined)
 : -0.7, -4, i, 4, -18, nt, nt, 3.1, nt
- COc1cccc(NC(=O)N2CCN(C(=O)C(Cc3ccc(OC)c(OC)c3)NC(C)=O)CC2)c1 (centres undefined)
 : -1.1, 8, i, 15, -1.3, 0.68, 8%, 3.3, -10
- CCn1c(SCC(=O)NCCc2ccccc2)nnc1-c1cccs1
 : nt, nt, nt, nt, -1.3, 0.66, 29%, nt, 0
- CC(=O)OCCc1[nH]c2ccccc2c1C
 : 4.7, 4, i, 4, 1.3, nt, nt, -10.0, -17
- O=C(CC(Nc1cccc(Cl)c1Cl)C(=O)O)c1ccccc1 (centres undefined)
 : -1.0, -17, i, -14, -1.1, 0.7, -1%, -4.5, -10
- CCOc1ccc(NC(=S)Nc2ccc(OC)cc2)cc1
 : 0.2, 2, i, -6, -0.3, 0.67, 7%, 1.8, -24
- CCOC(=O)c1cnn(-c2cc(C)nc3c(-c4ccccc4)c(C)nn23)c1N
 : nt, nt, nt, nt, -0.3, 0.77, 8%, nt, -6
- CC(=O)NC1CCN(CC(=O)Nc2cccc([N+](=O)[O-])c2)CC1
 : 3.0, 10, i, 16, 1.4, 0.63, 12%, 0.2, -14
- C[C@H]1CN([C@@H](C)CO)C(=O)c2ccccc2-c2ccccc2CO[C@@H]1CN(C)S(=O)(=O)c1ccccc1F
 : -0.4, -6, i, 10, nt, nt, nt, 6.0, nt
- CN1c2ccc(Br)cc2[C@H]2[C@H](CCN2C(=O)C2CCCCC2)[C@@H]1CO
 : 2.3, -17, i, -3, nt, nt, nt, -1.0, nt
- COc1ccc2c3c([nH]c2c1)[C@H](CO)N(C(=O)c1ccccc1)CC31CN(C(=O)NC(C)C)C1
 : 0.2, 19, i, 3, nt, nt, nt, -3.8, nt
- O=C(C[C@@H]1C=C[C@@H](NC(=O)Nc2cccc(F)c2)[C@@H](CO)O1)NCC1CC1
 : -0.5, -3, i, -1, nt, nt, nt, 0.1, nt
- COc1cccc(OC)c1C(=O)Nc1ccc(N2CCN(C(=O)c3cccs3)CC2)cc1
 : -2.5, 0, i, -3, 0.9, 0.66, nt, 2.4, 4

(listing goes on)
Second line of a record: Ecoli rRNA inh RFP, Ecoli rRNA inh OD600, FGF22 binding, Ecoli rRNA inh, HNF4A DNA FP, E coli growth, Vif TR-FRET, AF4-AF9 inh, ALR inh
- CC(C)NC(=O)N(C)C[C@@H]1Oc2ccc(NS(=O)(=O)c3cccs3)cc2CC(=O)N([C@H](C)CO)C[C@@H]1C
 : -2.4, -3, i, 0, nt, nt, nt, -3.4, nt
- Cc1cc(C(=O)COC(=O)c2ccc(O)cc2)c(C)n1CC1COc2ccccc2O1 (centres undefined)
 : 3.4, -9, i, -7, 4.4, 0.72, 2%, 7.5, -7
- NC(=O)C(=O)N/N=C/c1cccc(C(F)(F)F)c1
 : -1.8, -7, i, 8, -0.2, nt, -10%, -1.9, -6
- CC1COC(Cn2c3ccccc3c3ccccc32)O1 (centres undefined)
 : -9.8, -42, i, -39, -1.7, 0.64, 2%, -0.1, -7
- COc1ccc(CCC(N)=O)cc1OC
 : nt, nt, nt, nt, 3.5, 0.69, 3%, nt, 5
- Cn1c(=NCC(O)COc2ccccc2)sc2ccccc21 (centres undefined)
 : nt, nt, nt, nt, 3.0, 0.8, 25%, nt, -4
- Cc1ccc(NS(=O)(=O)c2ccc3c(c2)oc(=O)n3C)cc1
 : 4.0, 14, i, 13, 0.5, 0.62, nt, 2.7, 3
- CCCC(=O)Nc1ccc2c(c1)C(=O)N(C)[C@H]1CC[C@@H](CC(=O)NCc3cccc(F)c3)O[C@@H]1CO2
 : -2.9, 0, i, -2, nt, nt, nt, -3.0, nt
- CO[C@H]1CN(C)C(=O)c2cc(NC(=O)C3CCOCC3)ccc2OC[C@H](C)N(CC2CC2)C[C@@H]1C
 : -0.6, 3, i, 3, nt, nt, nt, -1.2, nt
- COc1ccc(C(=O)NC(=S)Nc2ccc(Cl)cn2)cc1OC
 : -1.3, 2, i, 1, 2.2, 0.7, -3%, 0.6, nt
- CS(=O)(=O)Nc1ccc2c(c1)[C@@H]1C[C@H](CC(=O)NCc3cccc(F)c3)O[C@H](CO)[C@@H]1O2
 : -0.9, 7, i, 3, nt, nt, nt, -0.8, nt
- CC(C)n1ncc2c(C(=O)NCc3ccccc3CN(C)C)cc(C3CC3)nc21
 : 2.2, 3, i, 0, -1.4, 0.71, nt, 1.8, -21
- O=C(c1cc(Cl)ccc1O)N1CCN(S(=O)(=O)Cc2ccccc2)CC1
 : -0.1, -1, i, -3, -2.9, 0.67, nt, 3.5, -3
- CN1CCN(CC(O)Cn2c3ccccc3c3ccccc32)CC1 (centres undefined)
 : -0.1, 9, i, -9, -3.8, 0.65, -7%, 1.6, -109
- Cc1cc(SCC#N)n2nc(C)c(-c3ccc(Cl)cc3)c2n1
 : nt, nt, nt, nt, 4.8, 0.7, ?, nt, -28

(cont.)
Second line of a record: Ecoli rRNA inh RFP, Ecoli rRNA inh OD600, FGF22 binding, Ecoli rRNA inh, HNF4A DNA FP, E coli growth, Vif TR-FRET, AF4-AF9 inh, ALR inh
- COc1ccc(NC(=O)C2Cc3c(-c4cccc(F)c4)ccnc3O2)cn1 (centres undefined)
 : 1.4, -30, i, 1, 2.9, nt, nt, 0.0, nt
- Cc1ccc(OCC(=O)NCCNC(=O)c2cnccn2)cc1C
 : -0.3, 0, i, 3, -0.7, 0.68, nt, 2.4, nt
- COc1ccc(-c2cc(=O)c3cc(OC)ccc3[nH]2)cc1
 : nt, nt, nt, nt, 3.8, 0.68, -3%, nt, nt
- Cc1ccc(CNCc2cc(Cl)ccc2O)cc1
 : -6.3, -7, i, -3, -0.5, 0.61, nt, -2.4, nt
- CCCc1nnc(NC(=O)CN2C(=O)c3ccccc3S2(=O)=O)s1
 : nt, nt, nt, nt, 1.7, 0.71, -4%, nt, 1
- Cc1cc(C)cc(NC(=S)N2CCN(Cc3ccccc3)CC2)c1
 : -2.5, -9, i, -6, 1.3, 0.68, -7%, 3.9, -22
- Cn1cc(CC(=O)NCCCN2CCCC2=O)c2ccccc21
 : -1.0, 4, i, 0, 0.0, 0.74, 1%, 4.2, -33
- Cc1ccc(NC(=O)Nc2ncnc3nc[nH]c23)cc1
 : 6.1, 15, i, 4, -3.4, 0.67, -9%, -20, -3
- CSc1ccc(S(=O)(=O)NCCOc2ccccc2C)cc1
 : -5.6, -8, i, -6, -0.4, 0.65, 20%, 2.7, -3
- COc1cccc(-c2c(C(=O)N/N=C/c3ccoc3)nnn2-c2nonc2N)c1
 : 6.1, 2, i, 2, 0.8, nt, nt, -1.2, 3
- CC1CCCCC12NC(=O)N(CC(=O)OCC(=O)NCc1ccc(F)cc1)C2=O (centres undefined)
 : -1.1, -1, i, -3, 5.6, 0.71, 0%, -5.0, -8
- CC(C)OCCCN1CN(S(=O)(=O)c2ccccc2)c2nc3ccccc3nc21
 : nt, nt, nt, nt, 0.9, 0.78, ?, nt, -15
- CN1COc2ccc3ccccc3c2C1
 : -2.1, 6, nt, 7, 1.8, 0.67, nt, -1.2, 17
- CSCCC(NC(=O)COc1ccccc1)C(=O)OC(C)C(=O)Nc1ccccc1C (centres undefined)
 : 2.8, 2, i, 10, -9.8, 0.64, -1%, -1.3, 1
- CC(=O)NC[C@H]1[C@@H](c2ccccc2)[C@@H](CO)N1C(=O)Cc1cccnc1
 : -1.3, 7, i, 3, nt, nt, nt, -1.8, nt

Reprinted from the part before: two entries, then new ones.
Second line of a record: Ecoli rRNA inh RFP, Ecoli rRNA inh OD600, FGF22 binding, Ecoli rRNA inh, HNF4A DNA FP, E coli growth, Vif TR-FRET, AF4-AF9 inh, ALR inh
- CSCCC(NC(=O)COc1ccccc1)C(=O)OC(C)C(=O)Nc1ccccc1C (centres undefined)
 : 2.8, 2, i, 10, -9.8, 0.64, -1%, -1.3, 1
- CC(=O)NC[C@H]1[C@@H](c2ccccc2)[C@@H](CO)N1C(=O)Cc1cccnc1
 : -1.3, 7, i, 3, nt, nt, nt, -1.8, nt
- CC(=O)C1=C(C)N(Cc2ccccc2)C(=O)N[C@H]1CCc1ccccc1
 : -4.0, 4, i, -4, -0.1, nt, ?, -0.1, 0
- COC(=O)Nc1ccc2c(c1)N(C(=O)CCN(C)C)c1ccccc1CC2
 : 0.2, 2, i, 7, -5.4, 0.7, nt, 0.9, -19
- Cc1ccccc1C(=O)NC1CCCN(Cc2ccccc2F)C1 (centres undefined)
 : 1.7, 13, i, 20, -3.6, 0.67, nt, -4.4, -5
- COc1ccc(CN(C)C[C@H]2Oc3ccc(NC(=O)C4CCCCC4)cc3C(=O)N([C@H](C)CO)C[C@H]2C)cc1
 : 1.5, 4, i, -2, nt, nt, nt, -0.2, nt
- C/C=C/c1ccc2c(c1)O[C@H](CN(C)Cc1ccccc1)[C@@H](C)CN([C@H](C)CO)S2(=O)=O
 : 16, -44, i, -29, nt, nt, nt, 9.2, nt
- Cc1ccc(N2CC(C(=O)Nc3nccs3)CC2=O)cc1Cl (centres undefined)
 : nt, nt, nt, nt, 0.9, 0.65, -1%, nt, 2
- C[C@@H]1CN([C@H](C)CO)C(=O)c2cc(C#CC3CC3)cnc2O[C@@H]1CN(C)C(=O)c1ccc(F)cc1
 : 0.1, 4, i, 3, nt, nt, nt, -4.4, nt
- O=C(c1ccccc1F)N1CC(=O)N2[C@H](CO)[C@H](c3ccc(-c4ccc(F)cc4)cc3)[C@@H]2C1
 : -1.1, -11, i, -5, nt, nt, nt, -1.0, nt
- Cc1cc(C(=O)N2CCN(Cc3ccccc3)CC2)on1
 : -0.1, 5, i, 9, -2.5, 0.69, 0%, -3.0, -2

Five compounds drawn at random from those above, as already listed:
Second line of a record: Ecoli rRNA inh RFP, Ecoli rRNA inh OD600, FGF22 binding, Ecoli rRNA inh, HNF4A DNA FP, E coli growth, Vif TR-FRET, AF4-AF9 inh, ALR inh
- Cn1c(=NCC(O)COc2ccccc2)sc2ccccc21 (centres undefined)
 : nt, nt, nt, nt, 3.0, 0.8, 25%, nt, -4
- CC12CCC(=O)N1C(C(=O)NCCN1C(=O)S/C(=C\c3ccccc3F)C1=O)CS2 (centres undefined)
 : 1.7, -6, i, -3, -2.0, 0.7, 0%, 0.4, -5
- CC(C)n1ncc2c(C(=O)NCc3ccccc3CN(C)C)cc(C3CC3)nc21
 : 2.2, 3, i, 0, -1.4, 0.71, nt, 1.8, -21
- CCCc1nnc(NC(=O)CN2C(=O)c3ccccc3S2(=O)=O)s1
 : nt, nt, nt, nt, 1.7, 0.71, -4%, nt, 1
- CC(C)NC(=O)N(C)C[C@@H]1Oc2ccc(NS(=O)(=O)c3cccs3)cc2CC(=O)N([C@H](C)CO)C[C@@H]1C
 : -2.4, -3, i, 0, nt, nt, nt, -3.4, nt
